Compound activity: PubChem BioAssay, National Center for Advancing Translational Sciences (NCATS)
gsp antagonist – antagonizes gsp, the McCune-Albright syndrome mutation. gsp-mutant cells, cAMP HTRF, 30 min; control for the full effect not named in the record. Potency, µM (doses to about 76.9 µM), without a hit: top-dose activity change, negative = inhibition, most hits filed as inhibitors. 340,000 tested, 0.4% active. AID 624288; active = falling curve of any shape with a large fitted effect; inconclusive = falling curve, mostly with a smaller effect; inactive = flat or rising curve; cell line not stated here;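 further: intracellular cAMP measured with PDE inhibitor Ro 20-1724 present during compound exposure; potency means the concentration at half of the fitted maximal effect; on the % scale 0 is the no-effect control and ±100 the full control effect; nearly all actives have a fitted effect of over 65% in size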
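Cells, 2000/well, grown 16–24 h in DMEM 10% FBS with 0.5 mg/ml G418, then compounds plus […] (300 uM addition stock), 30 min at 37C. cAMP read by HTRF (cAMP-d2 and anti-cAMP antibody-K in lysis buffer) after 30 min RT.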
Menin-MLL FL inh – inhibitors of human menin-MLL interaction, wild-type MLL peptide. Fluorescence polarization, fluorescein-MLL peptide displacement from menin. FP activity change, % at 61.4 µM. 290,000 tested, under 10 active. AID 1766; inconclusive = falling polarisation curve, or a change in total fluorescence; inactive = total fluorescence flat and polarisation flat or rising; no compound was filed as active; the % refers to the polarisation; negative = inhibition;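 further: % of control where 0% means no effect; inhibitors lower the polarisation; unlabelled MLL peptide was the positive control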
Sfp PPTase inh – Sfp phosphopantetheinyl transferase inhibition. Q9F4F7. Biochemical Sfp PPTase activity, qHTS. Potency, µM, for the others: max response, negative = inhibition, most hits filed as inhibitors. 310,000 tested, 3.5% active; active means well fitted inhibition curve with a large enough effect; inconclusive means small, poorly fitted or top-dose-only effect, or another doubt; inactive means no such curve, though single readings can be large or run the other way;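 further: the enzyme is Sfp with the accession as filed and its product quenches rhodamine fluorescence; potency means the concentration at half of the fitted maximal effect; 0% = enzyme reaction without inhibitor and -100% = no enzyme wells; top concentration of the series not given in the record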
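Reaction rates are the 30-min fluorescence difference (ex 525, em 598 nm) in wells containing 15 nM Sfp, 5 uM rhodamine-CoA and 12.5 uM BHQ-2-YbbR at pH 7.6 with 10 mM MgCl2.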
gsp ag – gsp mutant agonism. gsp mutant cells, cAMP HTRF, 30 min; control for the full effect not named in the record. Potency, µM (top dose mostly 76.9 µM), inactives show at the top dose activation (cAMP increase), usual class: activators. 340,000 tested, 0.13% active. AID 624287; active = well fitted activation curve with a large enough effect; inconclusive = small, poorly fitted or top-dose-only effect, or another doubt; inactive = no such curve, though single readings can be large or run the other way; cell line not stated here;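 further: phosphodiesterase inhibitor Ro 20-1724 added with compounds to block cAMP breakdown; potency means the concentration at half of the fitted maximal effect; nearly all actives have a fitted effect of over 60% in size; about a fifth of the inactives were tested at one dose only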
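Cells stably selected in G418 were plated at 2000/well, grown 16-24 hr, then given compounds in DMSO with the PDE inhibitor […] (300 uM solution added) for 30 min at 37C; cAMP was read by HTRF.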
TRPV1 potentiator – enhances activation of the human vanilloid receptor TRPV1. TRPV1-expressing cells, Fluo-8 calcium influx, capsaicin EC20 potentiation; host cell line not named in the record; control for the full effect not named in the record. potentiation, % at 8.33 µM. 320,000 tested, 0.02% active; active means potentiation above 80%; inconclusive means 30% to 80%; inactive means below 30%; further: 0% is about no effect
Target sequence (Q8NER1 whole entry, looked up): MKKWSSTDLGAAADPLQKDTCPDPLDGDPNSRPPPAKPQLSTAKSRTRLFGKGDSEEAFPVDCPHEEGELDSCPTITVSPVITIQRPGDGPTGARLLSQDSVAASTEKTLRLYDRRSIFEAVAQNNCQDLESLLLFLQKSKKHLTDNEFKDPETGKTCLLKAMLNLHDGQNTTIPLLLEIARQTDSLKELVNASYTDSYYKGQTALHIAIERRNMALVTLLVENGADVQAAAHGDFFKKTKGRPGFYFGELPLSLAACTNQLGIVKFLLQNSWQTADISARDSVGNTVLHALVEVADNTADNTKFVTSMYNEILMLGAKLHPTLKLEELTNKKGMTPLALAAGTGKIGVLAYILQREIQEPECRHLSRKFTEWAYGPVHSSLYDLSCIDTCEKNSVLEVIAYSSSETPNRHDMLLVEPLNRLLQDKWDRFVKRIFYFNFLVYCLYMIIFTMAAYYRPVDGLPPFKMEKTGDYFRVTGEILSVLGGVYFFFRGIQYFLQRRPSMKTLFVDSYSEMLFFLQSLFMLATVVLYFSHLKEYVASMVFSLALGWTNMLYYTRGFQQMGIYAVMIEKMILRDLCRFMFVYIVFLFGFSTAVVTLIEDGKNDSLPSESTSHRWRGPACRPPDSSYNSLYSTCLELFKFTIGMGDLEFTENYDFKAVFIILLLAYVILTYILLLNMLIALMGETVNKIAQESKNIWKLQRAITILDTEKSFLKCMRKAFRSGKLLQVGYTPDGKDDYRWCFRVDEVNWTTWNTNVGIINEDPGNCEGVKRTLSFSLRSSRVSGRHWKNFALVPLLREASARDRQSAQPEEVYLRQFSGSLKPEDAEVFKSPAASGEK
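Fluo-8 calcium influx in TRPV1-expressing cells, kinetic read (ex 480/em 520 nm). Compound added and read 3 min for agonist activity, followed by capsaicin at EC20 final and 2 min further read for enhancement.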
ClpP mod – qHTS Assay for Activators of ClpP; ATP-dependent Clp protease proteolytic subunit (Bacillus subtilis (strain 168)), P80244; purified B. subtilis ClpP, FRET peptide cleavage, 20 min; Potency, µM (series often up to 57.5 µM), without a hit: at the highest dose activity change, negative = active; 340,000 tested, 1.9% active; AID 651965, 2013; active = well fitted falling curve with a large enough effect; inconclusive = small, poorly fitted or top-dose-only effect; inactive = no such curve, though single readings can be large or run the other way; further: potency means the concentration at half of the fitted maximal effect; the source files actives as falling curves though it sought activators and does not explain the sign; nearly all actives have a fitted effect of over 65% in size; many hits overshoot -100%
Target sequence (P80244 whole entry, looked up): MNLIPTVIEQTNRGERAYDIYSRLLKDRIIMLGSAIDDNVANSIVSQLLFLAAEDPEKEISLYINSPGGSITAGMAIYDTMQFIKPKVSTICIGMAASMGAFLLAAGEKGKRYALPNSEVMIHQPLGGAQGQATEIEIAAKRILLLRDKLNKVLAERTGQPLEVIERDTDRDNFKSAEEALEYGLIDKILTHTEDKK
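FRET quenching reversal measured ClpP activation: 10 microg/mL B. subtilis ClpP at pH 8 with the FRET-FV decapeptide, read at 430 nm after 320 nm excitation. The 20-min minus 0-min signal was scaled between DMSO/no-enzyme wells and ADEP (5.8 microM final).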
D2 PAM – positive allosteric modulators of human D2 dopamine receptor. P14416. DiscoveRx D2 beta-arrestin cells, luminescence, 90 min; 100% = 57 uM dopamine signal. potentiation, % (test concentration not listed). 360,000 tested, 0.23% active. AID 624464; active = potentiation of 50% or more; inconclusive = 30% to 50%; inactive = 30% or less;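 further: compound concentration not given in the record; tested on top of an EC20 dose of dopamine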
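PathHunter beta-arrestin assay in DiscoveRx D2 cells. Compounds were added with an EC20 of dopamine (50 nM final) for 90 min at 37 deg C. Luminescence was read 1 h after detection reagent, with 57 uM dopamine as the EC100 control.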
Numbers without * were called inactive; i = inactive; ? = inconclusive; · = no result given; & = joins results of further samples; [ ] = remark or other dose.

SMILES	gsp antagonist	Menin-MLL FL inh	Sfp PPTase inh	gsp ag	TRPV1 potentiator	ClpP mod	D2 PAM
O=C(c1cc(-c2ccco2)nc2ccccc12)N1CCN(c2ccc(F)cc2)CC1	-14%	3.0	25µM*	-36%[inhibitor]	-3	?	-7
CCc1c(C)c2c(C)nn(-c3ccccc3)c2oc1=O	0%	2.6	-14%	0%	11	-4.7%	6
CCCCOC(=O)C1[C@H]2C(=O)N(Cc3cccs3)C[C@]23C=C[C@H]1O3 (stereo not given in full)	-7%	2.9	-14%	9%	-3	-1.2%	1
CCC(C)C(NC(=O)C1CCC(C)CC1)C(=O)NC(C(=O)OC)C(C)C (stereo not given)	10%	0.7	27%	-48%[inhibitor]	-2	1.3%	-6
COc1ccc(CCN=C(N)NS(=O)(=O)c2ccccc2)cc1OC	10%	6.2	-2%	-7%	12	0.9%	-15
N=c1c(S(=O)(=O)c2ccc(Cl)cc2)cc2c(=O)n3ccccc3nc2n1C1CCCCC1	19%	·	21%	-14%	2	0.0%	-5
Cc1ccc(NC(=O)CCNS(=O)(=O)c2ccc3c(c2)CCC(=O)N3)c(Br)c1	4%	4.6	9%	-3%	7	0.9%	-2
O=C1c2ccccc2NC(c2ccc([N+](=O)[O-])cc2)N1O (stereo not given)	-1%	-7.3	-6%	7%	-5	·	-7
Cc1cc(C(=O)NC(CC(C)C)C(=O)O)cc(C)c1[N+](=O)[O-] (stereo not given)	-2%	-4.2	6%	0%[15.4 µM]	8	2.4%	-2
Cc1ccc(C(C)C)c(OCC(=O)NN=C2CCCC2)c1	-7%	-0.8	13%	-18%	-17	3.1%	21
CCOC(=O)/C(=N\NC(=O)c1ccccc1)c1ccccc1	-12%	1.3	0%	2%	-24	-1.2%	-20
N#Cc1ccc(CSc2nc(N)cc(=O)[nH]2)cc1	4%	4.2	2%	-15%	?	-2.2%	-13
CN(C)CC(C)(C)CNS(=O)(=O)c1ccc(Cl)c(Cl)c1	15%&8%	-1.8&1.5	3%&-2%	-2%[15.4 µM]	-1&2	-0.9%	2&-10
CC12CC(O)C3c4ccc(O)cc4CCC3C1CCC2=O (stereo not given)	7%	-0.1	17%	6%	-1	0.7%	29
COc1ccc(C(=O)CSc2nnc(CNc3ccc(C)cc3C)n2Cc2ccco2)cc1	-11%	5.5	-3%	15%	9	-2.6%	-3
C=CCn1c(SCC(=O)N(CC)C2CCS(=O)(=O)C2)nnc1-c1ccccc1 (stereo not given)	11%	·	·	2%	0	-2.0%	-3
CC1(c2ccc3ccccc3c2)NC(=O)N(CC(=O)O)C1=O (stereo not given)	16%	-0.2	0%	-43%[inhibitor]	-1	·	0
Clc1ccccc1N=C1SCCS1	13%	2.0	20%	-2%[15.4 µM]	1	·	-8
O=C(CN1CCC(n2nnc3cc(F)ccc32)CC1)N1CCCc2ccccc21	2%	0.1	-1%	1%	13	-1.9%	-37
CCOc1cc(CO)c(Br)cc1OCC(=O)O	5%	3.3	?	28%	-1	-0.1%	-18
CC(C)CCNC(=O)NC(=O)COC(=O)c1cc(S(=O)(=O)N2CCOCC2)ccc1N1CCCCC1	1%	-0.2	18%	7%	-1	11%	-7
CCOC(=O)N1CCN(c2ccc(C(F)(F)F)cn2)CC1	4%	-2.6	7%	13%[15.4 µM]	-2	?	15
COC(=O)c1cc(NC(=O)CC2CCCC2)cc(C(=O)OC)c1	4%	-0.7	18%	14%[15.4 µM]	-8	·	-3
NC(=O)C1CCN(C(=O)CCC(=O)c2ccc(Br)cc2)CC1	8%	2.2	11%	5%[15.4 µM]	3	·	1
COc1ccc(Cc2c(O)nc(SCC(=O)N3CCCCCC3)[nH]c2=O)cc1	-2%	6.6	17%	-4%	-8	-2.0%	-11
Cc1cccc(N(CC(=O)NC2CCCC2)C(=O)CCCC(=O)Nc2ccccn2)c1	-10%	3.5	-5%	4%	-15	-0.6%	17
O=C(O)CCC(=O)N1CCc2cc(S(=O)(=O)N3CC=C(c4ccccc4)CC3)ccc21	-10%	-2.4	-7%	7%	-7	0.6%	1
COc1ccc([C@]23Cc4cc(OC)c(OC)cc4C(O2)c2c(cc(-c4ccccc4)oc2=O)O3)cc1	·	9.7[11.7 µM]	-1%	·	i	·	·
O=C(CSc1nnc2c(n1)[nH]c1ccccc12)NCc1ccccc1F	9%	0.1	9%	-12%[15.4 µM]	9	·	-5
O=C(NC(Cc1c[nH]c2ccccc12)C(=O)OCC(=O)c1cccc2ccccc12)c1cccs1 (stereo not given)	-8%	15	12%	0%	7	-1.1%	-5
CCOC(=O)C1CCN(C(=O)COC(=O)CNC(=O)c2sc3ccccc3c2Cl)CC1	-5%	·	·	?	8	-12%	-17
O=C(CCc1nc2ccccc2[nH]1)Nc1ccc2c(c1)OCO2	-10%	7.2	-6%	-32%[inhibitor]	-19	-62%	3
CCCOc1ccccc1NC(=O)c1ccc([N+](=O)[O-])cc1	·	1.2	-1%	-2%[15.4 µM]	2	·	22
O=C(N/N=C/c1ccc(O)cc1)c1csc2c1CCCC2	-35%	-0.1	-17%	22%[15.4 µM]	8	-3.5%	0
Cc1nnc(NC(=O)CSc2nnc(Cc3cccn3C)n2CCc2ccccc2)s1	-17%	2.9	5%	-20%	10	1.8%	-1
CCc1nc(CNC(=O)C2CCC(=O)N(Cc3ccccc3F)C2)no1 (stereo not given)	9%	2.6	17%	?	-15	3.4%	0
Cn1c(=O)[nH]c(=O)c2c1nc(Br)n2C/C=N/NC(N)=S	·	1.9	56µM*	·	12	·	·
CCCCN(CC)S(=O)(=O)c1ccc(C(=O)N(CCCN(C)C)c2nc3cc(C)cc(C)c3s2)cc1	?	1.7	50µM*	-7%[15.4 µM]	-5	·	-19
CCOC(=O)C1CCN(C(=O)CNS(=O)(=O)c2ccc(Br)s2)CC1	5%	-0.3	9%	-40%[inhibitor]	0	-1.6%	-6
Cc1cc([N+](=O)[O-])cc2c1NC(=O)C2(O)N1CCCCCC1 (stereo not given)	-15%	0.8	12%	9%[15.4 µM]	10	0.2%	-7
O=C(COC(=O)c1ccccc1Br)Nc1ccc2[nH]c(=O)[nH]c2c1	-3%	·	·	18%[15.4 µM]	6	-1.1%	-6
CC1CCc2c(C(=O)Oc3cccc(-n4cnnn4)c3)csc2C1 (stereo not given)	-12%	3.3	?	-40%[inhibitor]	-6	-1.9%	-1
C=CCn1c(N)c(C(=O)Nc2ccc(C)c(C)c2)c2nc3ccccc3nc21	-11%	0.7	-1%	-18%	-2	-8.3%	-14
COc1ccc(OC)c(C(=O)NC(CC(N)=O)c2ccc(NCc3ccc(F)c(F)c3)c([N+](=O)[O-])c2)c1 (stereo not given)	-3%	-6.9	-7%	17%	-7	?	-10
CCN(C(=O)COC(=O)CNC(=O)c1ccc2ccccc2c1)C1CCS(=O)(=O)C1 (stereo not given)	18%	0.7	17%	5%	2	-30%	-5
Cc1noc(C)c1COc1ccc(C(=O)Nc2nnc(CC(C)C)s2)cc1	10%	·	·	19%	7	-2.9%	1
O=C(NCCCOc1ccc([N+](=O)[O-])cc1Cl)OCc1ccccc1	-8%	·	·	-5%	·	1.1%	-6
Cc1csc(SCC(=O)N2CCN(S(=O)(=O)c3ccc(Cl)cc3)CC2)n1	-9%	2.2	14%	-11%	4	-0.6%	-5
O=C(O)Cn1nnc(-c2ccc(OCc3ccccc3Cl)cc2)n1	7%	11	18%	-2%[15.4 µM]	3	·	14
COc1ccc(Cl)cc1NC(=O)CN(c1ccccc1)S(=O)(=O)N(C)C	-10%	2.1	-9%	3%	-9	-0.6%	-27
O=C(Nc1ccc(-n2nncc2-c2ccco2)cc1)c1cccc(F)c1	-9%	0.2	?	-2%	0	-1.1%	-13
COC(=O)CN1C(c2ccccc2O)Nc2ccc(Br)cc2C1c1ccccc1 (stereo not given)	-4%	-1.3	3%	-3%	4	-9.9%	-6
CCNC(=S)NNC(=O)c1csc2c1CCC(C)C2 (stereo not given)	8%	3.6	3%	0%	-12	1.0%	-11
C=CCN(c1ccccc1)S(=O)(=O)c1cccc(C(=O)NCC(c2ccc(F)cc2)N2CCOCC2)c1 (stereo not given)	-9%	·	·	9%	14	-0.7%	-4
Nc1nc(-c2c(Cl)cccc2Cl)no1	5%	3.9	?	-16%	6	-0.2%	-5
COc1ccc(C(=O)c2c3ccc([N+](=O)[O-])cc3[n+]([O-])n2CCCC(N)=O)cc1	-9%	·	·	1%	-2	-2.7%	7
CN(CCC#N)C(=O)CSc1nnc(-c2ccco2)n1N	11%	-2.7	5%	-1%[15.4 µM]	-2	-0.1%	-6
C[C@H](CO)N1C[C@H](C)[C@@H](CN(C)Cc2ccc(Cl)c(Cl)c2)Oc2c(NC(=O)Cc3ccccc3)cccc2C1=O	?	·	·	·	·	-3.6%	20
CC(=O)c1cccc(NC(=O)Cn2cc3c(n2)CCCC3)c1	3%	1.9	7%	1%	2	1.7%	-6
COC(=O)c1ccc(OCC(O)Cn2nnc3ccccc32)cc1 (stereo not given)	2%	-0.4	8%	-14%	11	1.8%	-9

Ordered by the number under D2 PAM (rising): three from the list above.
Structure	D2 PAM
COc1ccc(OC)c(C(=O)NC(CC(N)=O)c2ccc(NCc3ccc(F)c(F)c3)c([N+](=O)[O-])c2)c1 (stereo not given)	-10
COC(=O)CN1C(c2ccccc2O)Nc2ccc(Br)cc2C1c1ccccc1 (stereo not given)	-6
Cc1ccc(NC(=O)CCNS(=O)(=O)c2ccc3c(c2)CCC(=O)N3)c(Br)c1	-2

More entries:
SMILES	gsp antagonist	Menin-MLL FL inh	Sfp PPTase inh	gsp ag	TRPV1 potentiator	ClpP mod	D2 PAM
COc1ccc(N2C(S)=C(C#N)C(=O)NC23CCCCC3)cc1	·	0.0	18µM*	4%[15.4 µM]	-6	·	-33
O=C1C2C3C=CC(C3)C2C(=O)N1c1ccc(N2CCN(c3ccccn3)CC2)c([N+](=O)[O-])c1 (stereo not given)	?	-5.2	17%	3%	-5	-5.5%	-15
Cc1ccc(CS(=O)(=O)Cc2ccc(C(=O)NCC3CCCO3)o2)cc1 (stereo not given)	3%	0.6	1%	11%	2	-2.9%	-7
COc1ccc(-n2c(=O)c3c4c(sc3n(CC(=O)Nc3cc(C)[nH]n3)c2=O)CCC4)c(OC)c1	10%	6.1	-1%	4%	8	-1.1%	-10
